ugtP null kill: kills S. aureus RN4220 lacking UgtP. S. aureus RN4220 ugtP deletion, OD600 growth, 16 h; some inactives read as strong as hits. actives 0.54% (n = 330,000). AID 1259309. growth inhibition, % (no concentration beside the values);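 active means z-score under -3 and OD600 up to 0.15 on both plates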;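 further: plate controls were untreated wells for no effect and antibiotic for full effect; wells of about 80 µL received 100 nL stock; the first replicate is given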
RN4220 kill: kills Staphylococcus aureus RN4220; S. aureus RN4220 growth, OD600, 16 h; inhibition, % (test concentration not listed); actives 0.33% (n = 330,000); AID 1259311;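 active means z-score of -3 or lower and OD600 up to 0.18 on both plates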;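 further: plate controls were untreated cells for no effect and reference antibiotic for full effect; stock transfer was 100 nL into about 80 µL; one replicate is shown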
PrP UTR inh: inhibition of PrP 5' UTR reporter expression; cell-based PrP 5' UTR mRNA reporter, plate reader; inhibition, % (concentration not given with the values); actives 0.35% (n = 340,000);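 active means every replicate at 50% or more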;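 further: 0 = median of the neutral control wells; tested in H4 reporter cells; numbers are from one replicate; inactives centre near -14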
BJeLR lethal: BJeLR cell viability loss. BJeLR (HRASV12) viability, CellTiter-Glo ATP luminescence, 48 h; reference of the scale not given here. inhibition, % (concentration not given with the values). actives 0.17% (n = 300,000);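 active means replicate mean above 50%; inconclusive means above 50% but judged a plate artefact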;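 further: 50 nL library stock added to about 25 µL; numbers are from one replicate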
Bead autofluor: flagged as autofluorescent in microsphere protease counterscreen; compound autofluorescence counterscreen, microsphere flow cytometry; stronger effect = higher value; fluorescence intensity (test concentration not listed); actives 3.1% (n = 360,000); AID 624483;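 active means at least 3 SD above the mean of all compounds, about 16000 in these data; inconclusive means too few beads counted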;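 further: 100 nL of 1 mM stock went into each well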
Mtb hypoxia rep: reduces hypoxia-regulated biosensor signal in M. tuberculosis; actives 0.1% (n = 300,000); AID 1159583; M. tuberculosis hypoxia-regulated fluorescent reporter, fluorescence; fluorescence inhibition, % (concentration not given with the values);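 active means 35 to 45% if threefold the growth effect, above 45% if 1.5-fold the growth effect; inactive means the rest, general growth blockers included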;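 further: wells of about 50 µL received 100 nL stock; 0% = vehicle wells and 100% = reference inhibitor wells; whole bacteria with a GFP reporter of the hypoxia response; strong numbers were not always called active; many hits fall short of the cut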
Mtb hypoxia rep growth: second read-out of Mtb hypoxia rep, no call of its own (marks repeat the call); growth inhibition, %; measured here: M. tuberculosis growth (absorbance);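 0% = vehicle and 100% = reference antibiotic; read after six days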
Starred values were filed as active, the others as inactive; ? = inconclusive; · = no result given; & = joins results of further samples.

Each structure is followed by: ugtP null kill | RN4220 kill | PrP UTR inh | BJeLR lethal | Bead autofluor | Mtb hypoxia rep | Mtb hypoxia rep growth
- CC(=O)C(C)n1cnc2scc(-c3ccc(C)cc3)c2c1=O (stereo unspecified)
 : 2 | 4.2 | -9 | -3 | 3659 | 2 | -3
- COc1ccc(/C=N/NC(=O)Cc2n[nH]c(=O)[nH]c2=O)cc1
 : · | · | 1 | 7 | 3413 | · | ·
- O=C(COC(=O)C1(c2cccc(F)c2)CCCC1)NCc1cccs1
 : 1 | 6.5 | -23 | 2 | 4734 | 6 | 5
- C=CCn1c(COc2ccccc2F)nnc1SCC(=O)NC(=O)NCc1ccco1
 : 17 | 5.4 | -10 | -7 | 6117 | 5 | -1
- O=C1NC(c2cc3ccccc3nc2Cl)Nc2ccccc21 (stereo unspecified)
 : 0 | 1.4 | -3 | -9 | 7177 | -1 | 2
- CCOC(=O)c1c(NC(=O)CSc2nnc(-c3ccc(OC)cc3)o2)sc2c1CCC2
 : · | · | -8 | -2 | 3156 | · | ·
- CC(C)NC(=O)CSc1nnc(-c2ccc(F)cc2)c2ccccc12
 : -7 | 2.1 | -38 | 2 | 3448 | 10 | 7
- Cc1ccc(S(=O)(=O)Nc2nc(C)cc(NN)n2)cc1
 : 7 | 3.7 | -2 | -1 | · | 3 | -7
- C=CCNC(=O)C1CCN(S(=O)(=O)CC)CC1
 : -8 | -1.7 | -28 | -10 | 7795 | -3 | 0
- CCn1c(N2CCN(C(=O)c3ccco3)CC2)nc2ccccc21
 : 7 | 4.5 | -22 | 15 | 3747 | 5 | 23
- COc1ccccc1Oc1ccc(S(=O)(=O)N2CCN(C)CC2)cc1
 : 3 | 1.1 | -15 | 10 | 3515 | 4 | 7
- Cc1nn(Cc2ccccc2)c(C)c1C(=O)NCCN1C(=O)S/C(=C\c2ccccc2)C1=O
 : -8 | 9.7 | -5 | 16 | 9986 | 4 | 2
- O=C(CN1C(=O)NC2(CCCC2)C1=O)OCc1ccccc1
 : 3 | 8.0 | -32 | · | 3919 | 9 | 1
- Cc1ccc(C(=O)N2C3=C(CCCC3)C(=O)NC23CCCCC3)cc1
 : 12 | 0.5 | -21 | 2 | 4452 | 9 | 5
- COC(=O)c1ccccc1NCC(=O)c1ccc(OC)cc1
 : · | · | -29 | 0 | 5025 | · | ·
- CC(O)c1nc2ccccc2n1CC(=O)N1CCN(c2ccccc2)CC1 (stereo unspecified)
 : -1 | -2.0 | -1 | 2 | 3274 | -17 | 1
- COc1cc(C(=O)N2CCN(S(=O)(=O)c3ccc(C(C)C)cc3)CC2)ccc1OCC(=O)N1CCOCC1
 : 3 | 1.2 | -1 | · | 3905 | 3 | 2
- O=C(CSc1ncn[nH]1)NC1CC2CCC1C2 (stereo unspecified)
 : 1 | 5.2 | -10 | -8 | 2506 | -2 | -1
- CC1(C)NC(C)(C)/C(=C\c2cccs2)C(=O)C1=O
 : 0 | 1.7 | 0 | 3 | 2030 | 12 | 4
- CC[N+](CC)(CC)C/C=C/CN1CCCCC1
 : 0 | 1.7 | -6 | 16 | 7171 | 2 | -1
- CC1CC(NC2=NCCS2)CC(C)(C)C1 (stereo unspecified)
 : 14 | 1.9 | 7 | 5 | 4355 | 6 | -11
- Cc1cc(Cl)c2oc(C(=O)NCCN3CCOC3=O)c(C)c2c1
 : 8 | 1.4 | -8 | -13 | 5012 | 8 | -5
- CCCCCN(C(=O)CCC(=O)OCCOc1ccccc1)c1c(N)n(CCCC)c(=O)[nH]c1=O
 : -1 | 3.5 | -4 | 3 | ? | -1 | 0
- CCc1ccc2[nH]c(O)c(N=NC3=NC(=O)CS3)c2c1
 : 0 | -13 | 9 | -1 | 4468 | 7 | 13
- O=C(Oc1ccc2ccc(=O)oc2c1)c1ccccc1
 : 7 | 3.3 | -10 | -8 | 3795 | -17 | 0
- Cn1c(N)c(C(=O)COC(=O)c2cccc(S(=O)(=O)NCc3ccccc3)c2)c(=O)n(C)c1=O
 : 3 | 6.6 | -9 | · | 3810 | 7 | -1
- Cc1cc(C)c(OCC(=O)OCC(=O)NC2CCCCCCC2)c(C)c1
 : 4 | 3.7 | -13 | -2 | 2953 | -1 | -5
- Cc1ccc(C(=O)OC(C)C(=O)Nc2ccc(S(N)(=O)=O)cc2)cc1S(=O)(=O)N1CCOCC1 (stereo unspecified)
 : 0 | 1.2 | -16 | -6 | ? | -6 | 3
- COCCn1nnnc1C(c1ccccc1)N1CCN(Cc2ccc3c(c2)OCO3)CC1 (stereo unspecified)
 : 0 | -0.9 | -3 | 12 | 2906 | · | ·
- Cc1cc(C)[n+](-c2ccc(Oc3ccccc3)c(S(=O)(=O)[O-])c2)[nH]1
 : 4 | 2.0 | -15 | 0 | 4417 | -11 | -7
- C/C(=N/NC(=O)c1cccs1)c1c(C)[nH]n(-c2nc3ccccc3s2)c1=O
 : · | · | 6 | 19 | 3057 | · | ·
- COC1OC(COC(=O)c2ccccc2)C(OC(=O)c2ccccc2)C1OC(=O)c1ccccc1 (stereo unspecified)
 : 27 | -0.2 | -13 | 8 | 4020 | 2 | -5
- CNC(=O)O/N=C/c1nn(C(=O)C(C)(C)C)cc1Br
 : · | · | -1 | 5 | 4403 | · | ·
- CCNc1ccc(P(=S)(N(C)C)N(C)C)cc1
 : 4 | 0.0 | -4 | -3 | 7810 | -1 | 2
- Cc1c(N=Cc2cccnc2)c(=O)n(-c2ccccc2)n1C
 : 0 | -7.8 | -5 | 7 | 3076 | 17 | 8
- CCCOc1ccc(N2C(=O)CC(N(Cc3ccc(OC)cc3)C(=S)Nc3ccccc3)C2=O)cc1 (stereo unspecified)
 : 5 | 3.3 | 1 | -2 | 2718 | 1 | 8
- COc1ccc2[nH]c3c(=O)n(N)c(=O)[nH]c3c2c1
 : -3 | -1.7 | 3 | -5 | 3622 | -8 | 9
- CNc1nc2c(c(=O)n(C)c(=O)n2C)n1Cc1ccccc1
 : -4 | 2.9 | -3 | 16 | 21814* | -3 | 0
- O=C(COc1ccccc1O)Nc1ccc(Cl)cc1
 : -13 | -8.7 | -24 | -1 | 4785 | · | ·
- COc1ccc(C(=O)OCC(=O)Nc2ccc(F)cc2F)cc1OC
 : 5 | 2.0 | -15 | 2 | 3602 | · | ·
- OC(COc1ccc2cc(Br)ccc2c1)CN1CCCC1 (stereo unspecified)
 : -9 | -6.2 | -19 | 3 | 23249* | 16 | 20
- Cc1cccc(OCC(=O)Nc2ccc(NC(=O)c3ccco3)cc2)c1
 : 4 | 3.2 | -34 | -8 | 3528 | 3 | 7
- CCOC(=O)CCC(=O)N1CCNC(=O)C1
 : -8 | 0.2 | -9 | -2 | 5202 | -3 | -4
- Cc1ccc(S(=O)(=O)Nc2ccccc2F)cc1C(=O)NCc1ccco1
 : 1 | -0.1 | -11 | · | 3972 | -3 | 2
- CC(=O)N1c2ccc(S(=O)(=O)N3CCC(C(=O)Nc4ccccn4)CC3)cc2CC1C (stereo unspecified)
 : 10 | 3.8 | -14 | 2 | 5410 | 1 | 7
- O=[N+]([O-])c1ccc(NN=Cc2ccccc2OCc2ccccc2)cc1
 : -2 | -2.7 | · | · | · | 7 | -1
- CCCCn1c(N)c(N(CCC(C)C)C(=O)C2CC(=O)N(c3ccc(OC)cc3OC)C2)c(=O)[nH]c1=O (stereo unspecified)
 : 6 | 4.7 | 2 | 6 | 6036 | 0 | 4
- Cc1ccc(C(=O)Cc2cc3ccccc3oc2=O)c(C)c1
 : 11 | 20 | -53 | -3 | 3579 | 13 | -1
- O=C(NN=Cc1ccccc1)c1ccc(-c2ccccc2)cc1
 : 0 | 1.6 | · | · | · | 2 | 2
- CCO[C@H]1OC(C(=O)N2CCOCC2)=C[C@@H](c2ccccc2)[C@@H]1CCCO
 : · | · | -25 | 4 | 4058 | · | ·
- O=C(Nc1ccc2c(c1)OCO2)c1cc2n(n1)C(C(F)(F)F)CC(c1ccccc1)N2 (stereo unspecified)
 : 1 | 5.4 | -6 | -6 | ? | -6 | 3
- C=CCn1c(SCC(=O)Nc2cc(NC(C)=O)ccc2OC)nnc1-c1ccccn1
 : -6 | 1.5 | -16 | 0 | 19382* | 5 | 9
- CCCCNC(=O)c1cccc2c(=O)c(C)c(-c3ccccc3)oc12
 : 1 | 3.7 | -10 | -13 | 2467 | 12 | -2
- CS(=O)(=O)c1ccc(Cl)c(NC(=O)COC(=O)CNC(=O)c2ccccc2)c1
 : -4 | 5.2 | -28 | -1 | 3028 | 12 | 6
- CC(Sc1nnc(-c2ccccc2)c(-c2ccccc2)n1)C(=O)Nc1ncc(Cl)cc1Cl (stereo unspecified)
 : 12 | -2.2 | -20 | -4 | 2157 | 4 | 2
- O=C(CSc1ccc(F)cc1)N1CCN(S(=O)(=O)c2ccccc2)CC1
 : 12 | 4.9 | -38 | 0 | 4706 | 7 | 0
- CC/C(=N\NC(=O)c1ccc2c(c1)OCO2)c1ccccc1
 : · | · | -16 | 7 | 5782 | · | ·
- CCOC(=O)C1C2COc3ccc(Br)cc3C2N2C(=O)N(c3ccc(F)cc3)C(=O)[C@@]12C (stereo partly specified)
 : -1&-33&-17 | 0.8&-7.9&0.5 | · | · | · | 3&12&-5 | 6&5&-2
- CN(C(=O)COC(=O)c1ccc(Br)o1)c1c(N)n(Cc2ccccc2)c(=O)[nH]c1=O
 : -1 | -0.1 | -5 | -1 | 5109 | 5 | 7
- CC(=O)Nc1ccc(S(=O)(=O)N2CCN(CCN3CCOCC3)CC2)cc1Cl
 : 3 | 3.1 | -7 | -5 | 4224 | -2 | -5

Compounds listed so far with two or more sulfur atoms:
Each structure is followed by: ugtP null kill | RN4220 kill | PrP UTR inh | BJeLR lethal | Bead autofluor | Mtb hypoxia rep | Mtb hypoxia rep growth
- CCOC(=O)c1c(NC(=O)CSc2nnc(-c3ccc(OC)cc3)o2)sc2c1CCC2
 : · | · | -8 | -2 | 3156 | · | ·
- Cc1ccc(C(=O)OC(C)C(=O)Nc2ccc(S(N)(=O)=O)cc2)cc1S(=O)(=O)N1CCOCC1 (stereo unspecified)
 : 0 | 1.2 | -16 | -6 | ? | -6 | 3
- C/C(=N/NC(=O)c1cccs1)c1c(C)[nH]n(-c2nc3ccccc3s2)c1=O
 : · | · | 6 | 19 | 3057 | · | ·
- O=C(CSc1ccc(F)cc1)N1CCN(S(=O)(=O)c2ccccc2)CC1
 : 12 | 4.9 | -38 | 0 | 4706 | 7 | 0

Additional structures.
Each structure is followed by: ugtP null kill | RN4220 kill | PrP UTR inh | BJeLR lethal | Bead autofluor | Mtb hypoxia rep | Mtb hypoxia rep growth
- CCOC(=O)c1c(C)[nH]c(C)c1S(=O)(=O)NCCc1cccs1
 : 0 | 1.2 | -9 | -2 | 6784 | 6 | 5
- O=C(O)c1nn2cc(CCO)cnc2c1Cl
 : 10 | 3.2 | 1 | -4 | 2627 | 1 | 11
- CCn1cc(C2=NOC(C(=O)Nc3cc(C)nn3-c3ccccc3)C2)c(C)n1 (stereo unspecified)
 : 5 | 2.5 | -25 | · | 9724 | 0 | -2
- O=C(O)c1cc(N/N=C/C(Cl)=C/c2ccccc2)ccc1Cl
 : · | · | -55 | -2 | 3283 | · | ·
- COc1ccc(COC(=O)C2=C(C)NC(=O)NC2c2cccc(Br)c2)cc1 (stereo unspecified)
 : -3 | 0.9 | -18 | -4 | 3371 | 3 | 9
- COc1ccc(-c2cc(C(=O)Nc3ccc(C(N)=O)cc3)c3ccccc3n2)cc1OC
 : 5 | -1.0 | -13 | 5 | 2568 | -5 | -5
- COc1cc(C=NNS(=O)(=O)c2ccc(C)c([N+](=O)[O-])c2)cc([N+](=O)[O-])c1O
 : 6 | 6.5 | · | · | · | 3 | 2
- COc1ccc(NC(=O)C2CCCN(S(=O)(=O)c3cnc[nH]3)C2)cc1 (stereo unspecified)
 : 3 | 0.7 | -30 | -6 | 3980 | · | ·
- CN(CC(=O)Nc1ccccc1Cl)C(=O)c1ccccc1SCC(=O)N1CCCC1
 : 3 | 2.0 | -22 | 10 | 4715 | 13 | 4
- Cc1cc(Cl)ccc1OCCCC(=O)Nc1cc(S(=O)(=O)N2CCOCC2)ccc1N1CCOCC1
 : 7 | 5.3 | -13 | · | 6268 | 1 | -4
- COc1ccc(/C=N/n2c(=O)[nH]c3c([nH]c4ccc(C)cc43)c2=O)cc1CN1CCOCC1
 : · | · | -103 | -12 | 8380 | · | ·
- COc1cccc(C(=O)OCC(=O)NCc2ccc3c(c2)OCO3)c1OC
 : 1 | 2.0 | -4 | · | 3141 | 5 | 5
